Compound activity from PubChem BioAssay.
ERb coact inh: inhibitors of ERβ-SRC1 coactivator interaction, primary screen, biochemical, TR-FRET, ERβ LBD, SRC-1 peptide; Estrogen receptor beta (Homo sapiens), Q92731; AID 633, 2007; TR-FRET ER-beta LBD / SRC1-Cy5 peptide binding; receptor agonist-loaded with 1 µM estradiol; 86,000 tested, 1.3% active; inhibition, % at 25.6 µM;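 active means compounds whose percent inhibition of the receptor-coactivator binding signal exceeds about 50% in the single-dose screen, limit read from the data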;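 further: 0% = receptor plus peptide wells without compound and 100% = peptide-only wells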
Target sequence (Q92731 whole entry, looked up, the tested form may be a part): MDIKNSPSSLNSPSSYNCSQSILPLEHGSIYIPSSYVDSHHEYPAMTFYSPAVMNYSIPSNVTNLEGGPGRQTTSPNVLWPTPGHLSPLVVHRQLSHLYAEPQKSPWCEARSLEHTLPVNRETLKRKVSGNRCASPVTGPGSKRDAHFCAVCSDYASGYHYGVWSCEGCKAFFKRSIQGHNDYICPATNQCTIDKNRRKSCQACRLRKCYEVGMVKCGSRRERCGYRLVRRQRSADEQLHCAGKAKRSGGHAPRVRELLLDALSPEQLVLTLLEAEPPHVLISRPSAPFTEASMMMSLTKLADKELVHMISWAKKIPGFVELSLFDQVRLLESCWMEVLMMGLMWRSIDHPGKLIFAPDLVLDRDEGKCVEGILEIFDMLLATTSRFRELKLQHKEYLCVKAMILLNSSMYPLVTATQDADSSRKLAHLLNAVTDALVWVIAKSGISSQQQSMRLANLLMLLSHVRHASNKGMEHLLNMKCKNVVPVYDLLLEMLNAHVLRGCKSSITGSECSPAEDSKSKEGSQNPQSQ
ERa coact inh: ERα–SRC-1 coactivator interaction inhibitors, primary screen, biochemical, TR-FRET, ERα LBD, estradiol-bound. inhibition, % at 25.6 µM. 86,000 tested, 1.7% active. TR-FRET ER-alpha LBD / SRC-1 peptide; in the data active means inhibition above about 50%;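 further: 0% = receptor plus peptide control and 100% = peptide only without receptor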
CD11b adhes enh: enhancers of CD11b/CD18 adhesion to fibrinogen, primary screen, K562 cells, luminescence; Integrin beta-2 (Homo sapiens) + Integrin alpha-M (Homo sapiens), P05107+P11215; activation, % at 10 µM; ATPlite luminescence; 93,000 tested, 0.07% active; AID 1499, 2009;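 active means 10 µM primary screen giving 50% or more activity, confirmed by 40% or more on retest at that dose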; further: strong numbers were not always called active
HIV Rev-RRE inh: HIV-1 Rev-RRE binding inhibitors, primary screen, biochemical, FRET, protein-RNA interaction; Rev peptide-RRE RNA binding; inhibition, % at 8 µM; 97,000 tested, 0.79% active; AID 704, 2007;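 active means inhibition above the screen-wide mean plus 3 SD, cut at about 35% in these data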;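 further: 0% = median DMSO wells and 100% = median Neomycin B control wells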
Target sequence (P05866 whole entry, looked up): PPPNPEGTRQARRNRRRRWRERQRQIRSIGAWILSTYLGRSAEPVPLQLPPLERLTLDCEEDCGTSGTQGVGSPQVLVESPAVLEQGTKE
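Test system: Cy5-tagged RRE RNA duplex with fluorescein-tagged Rev peptide; Probe or stimulus: labelled Rev peptide; Schedule: 5 min preincubation and 15 min binding, 25 °C; Signal: FRET fluorescence readout; Evaluation: % inhibition from 671/540 nm acceptor-to-donor ratio, scaled between controls; Control set: DMSO and neomycin B.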
PLK1 kinase inh: human PLK1 kinase inhibitors, primary screen, biochemical, TR-FRET | recombinant PLK1 kinase, TR-FRET peptide phosphorylation | inhibition, % at 10 µM | 97,000 tested, 0.53% active | AID 619, 2007;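 active means inhibition of 50% or more in the single-concentration screen; inactive means inhibition below 50%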;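 further: 0% = DMSO max control and 100% = H-89 dihydrochloride min control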
ERa SRC1 pot: enhancers of ERα–SRC-1 coactivator binding, primary screen, biochemical, TR-FRET, ERα LBD, low estradiol; TR-FRET ERalpha-LBD/SRC-Cy5 coactivator binding, 2 h; 100 = basal binding, no effect; 86,000 tested, 1.3% active; coactivator binding (% of control), % at 25.6 µM; in the data active means activity above about 200%;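 further: binding measured in presence of low estradiol as agonist stimulus; 0% = peptide alone without receptor and 100% = receptor with peptide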
Mac1 fbg inh: inhibitors of CD11b/CD18 adhesion to fibrinogen, primary screen, K562 cells, luminescence. 93,000 tested, 0.54% active. Integrin beta-2 (Homo sapiens) + Integrin alpha-M (Homo sapiens), P05107+P11215. AID 1497, 2009. ATPlite luminescence; Mn2+ added to activate the integrin. inhibition, % at 10 µM;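 active means primary inhibition of 50% or more at 10 µM, then 40% or more on retest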; further: some results filed as inactive read as strong as hits
PLK1 PBD inh: Plk1 polo box domain binding inhibitors, primary screen, biochemical, fluorescence polarization; Serine/threonine-protein kinase PLK1 (Homo sapiens), P53350; Plk1 PBD phosphopeptide binding; inhibition, %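 (tested at about 20 µM)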; 97,000 tested, 0.13% active; AID 693, 2007; in the data active means inhibition above about 34%, passing the limit was not always enough
Starred values were filed as active, the others as inactive; . = no result given; & = joins results of further samples; [ ] = remark or other dose. This is a subset, so the mix of outcomes need not match the whole.

1. C=CCn1c(SCC(=O)NCc2ccc3c(c2)OCO3)nc2scc(-c3ccccc3)c2c1=O
2. Cc1nc(N2N=C3/C(=C/c4ccc(F)cc4)CCCC3C2c2ccc(F)cc2)sc1C(=O)N(C)C (stereo not drawn)
3. Cc1cc(-c2[nH]nc3c2C(c2cccc(O)c2)C(C#N)=C(N)O3)c(C)s1 (stereo not drawn)
4. CC(c1ccccc1)C1CC(=O)N(CC(=O)O)C1=O (stereo not drawn)
5. CCCCn1c(=O)c(C(=O)c2ccccc2)nc2ccccc21

assay / entry	1	2	3	4	5
ERb coact inh	1	.	5	-10	-7
ERa coact inh	5	.	11	-14	-8
CD11b adhes enh	.	-2	-1	-4	0
HIV Rev-RRE inh	-2	7	5	9	6
PLK1 kinase inh	-11	-18	-9	-11	-5
ERa SRC1 pot	139	.	61	110	75
Mac1 fbg inh	.	16	-6	4	-14
PLK1 PBD inh	29	-12	4	-14	1

6. Cc1cc(C)c2oc(=O)cc(CN3CCN(Cc4ccc5c(c4)OCO5)CC3)c2c1
7. CCCc1cc(C(=O)Cc2ccc(C(=O)OCC)o2)c(O)cc1O
8. C=CCn1c(SCC(=O)NC2CCCC2)nc2scc(-c3ccco3)c2c1=O
9. Nc1nnc(SCC(=O)c2ccc3ccccc3c2)s1
10. CCCCCC(=O)Nc1cccc(-c2nc3ncccc3o2)c1

assay / entry	6	7	8	9	10
ERb coact inh	7	6[fluorescence artefact?]	31[fluorescence artefact?]	1[fluorescence artefact?]	-2
ERa coact inh	-1	9	47	-10	0
CD11b adhes enh	-3	-1	42	1	-2
HIV Rev-RRE inh	5	17	12	8	3
PLK1 kinase inh	-5	-7	16	-15	-1
ERa SRC1 pot	114	88	127	109	110
Mac1 fbg inh	-10	45	-14	-23	17
PLK1 PBD inh	17	-5	-32	-16	-20

11. O=c1[nH]ncc(N/N=C/c2ccccc2)c1Cl
12. COc1ccc(NC(C)=O)cc1NC(C)C(=O)Nc1ccccc1F (stereo not drawn)
13. c1cncc(-c2nnc(-c3ccco3)o2)c1
14. CCCCOc1ccccc1-c1cc(C(=O)O)[nH]n1
15. O=C(c1cccs1)N1CCN(C(=O)C(c2ccccc2)c2ccccc2)CC1

assay / entry	11	12	13	14	15
ERb coact inh	-2	5	-6	-6	-3
ERa coact inh	0	5	-5	0	-2
CD11b adhes enh	-2	-4	0	0	.
HIV Rev-RRE inh	4	0	3	11	4
PLK1 kinase inh	-2	-3	-7	12	-5
ERa SRC1 pot	92	133	89	124	105
Mac1 fbg inh	-7	0	-16	22	.
PLK1 PBD inh	28	31	4	-5	17

Two of these compounds, set out differently.
14) CCCCOc1ccccc1-c1cc(C(=O)O)[nH]n1
- ERb coact inh = -6
- ERa coact inh = 0
- CD11b adhes enh = 0
- HIV Rev-RRE inh = 11
- PLK1 kinase inh = 12
- ERa SRC1 pot = 124
- Mac1 fbg inh = 22
- PLK1 PBD inh = -5

15) O=C(c1cccs1)N1CCN(C(=O)C(c2ccccc2)c2ccccc2)CC1
- ERb coact inh = -3
- ERa coact inh = -2
- CD11b adhes enh = .
- HIV Rev-RRE inh = 4
- PLK1 kinase inh = -5
- ERa SRC1 pot = 105
- Mac1 fbg inh = .
- PLK1 PBD inh = 17

The results go on.
16. Cc1nc2ccc(NC(=O)NCCCO)cc2s1
17. CC(=O)NC(Cc1ccc(C)cc1)C(=O)NC1CCN(C(=O)c2cnccn2)CC1 (stereo not drawn)
18. COc1cc2c(cc1OC)CN(C(=O)COc1ccc(C#N)cc1)CC2
19. O=C1NCC(O)=C1C=NC12CC3CC(CC(C3)C1)C2
20. CCN(CC)S(=O)(=O)c1cccc(C(=O)OCC(=O)Nc2ccccc2OC(F)F)c1

assay / entry	16	17	18	19	20
ERb coact inh	3	-3	13	-3&-1[fluorescence artefact?]	.
ERa coact inh	6	-3	-39	4&1	.
CD11b adhes enh	-3	4	2	4&0	-2
HIV Rev-RRE inh	6	3	3	3	13
PLK1 kinase inh	-4	-4	0	-3	-14
ERa SRC1 pot	91[fluorescence artefact?]	115	90	98&104	.
Mac1 fbg inh	4	-14	-22	-26&-39	5
PLK1 PBD inh	15	-10	-5	-13	-3

21. CCOC(=O)c1cnn(-c2ccccn2)c1N
22. Cc1nnc(NC(=O)CSc2nc(C3CCCCC3)nc3ccccc23)s1
23. CN1CC(=O)NC1=NC(=O)c1cc(F)c(F)cc1Cl
24. Fc1cccc(Cl)c1CSc1ncn[nH]1
25. COC(=O)NNC(=O)c1ccc(C)cc1

assay / entry	21	22	23	24	25
ERb coact inh	-1	.	1[fluorescence artefact?]	.	.
ERa coact inh	-7	.	6[fluorescence artefact?]	.	.
CD11b adhes enh	-2	3	-6	5	-3
HIV Rev-RRE inh	3	2	7	4	1
PLK1 kinase inh	-12	-7	0	-2	0
ERa SRC1 pot	102	.	105	.	.
Mac1 fbg inh	46	-15	-2	7	10
PLK1 PBD inh	4	6	19	-18	9

26. CCOC(=O)CNC(=O)CSc1nnc(Cn2c(=O)sc3ccccc32)n1-c1ccccc1C
27. CCN(CC)c1ncnc2c1[nH]c1ccccc12
28. COc1cc2c(cc1NC(=S)Nc1ccccc1C)oc1ccccc12
29. O=C(NCc1ccco1)C1(S(=O)(=O)c2ccc(Cl)cc2)CC1
30. Cc1ccc(-n2c3c(c(=O)[nH]c2=O)C(NS(=O)(=O)c2ccc(C)cc2)(C(F)(F)F)C(=O)N3)cc1 (stereo not drawn)

assay / entry	26	27	28	29	30
ERb coact inh	12[fluorescence artefact?]	-1[fluorescence artefact?]	-6	59*	.
ERa coact inh	16	11[fluorescence artefact?]	2	2[fluorescence artefact?]	.
CD11b adhes enh	-3	-1	18	-2	.
HIV Rev-RRE inh	0	0	-1	6	8
PLK1 kinase inh	-10	-10	-7	-5	-15
ERa SRC1 pot	88	109	104	100	.
Mac1 fbg inh	-6	0	-5	19	.
PLK1 PBD inh	-5	-16	-1	-2	21

31. COc1cccc(-c2csc3nnc(SCC(=O)c4ccc(NC(C)=O)cc4)n23)c1
32. COc1ccc(NC(=O)c2cccnc2Nc2ccccc2)cc1
33. CCCCCCNCc1ccc(Br)cc1
34. N#Cc1nc(-c2ccc(OCc3ccc(Cl)cc3)cc2)oc1N1CCC(C(N)=O)CC1

assay / entry	31	32	33	34
ERb coact inh	7	-8	.	47
ERa coact inh	32[fluorescence artefact?]	-3	.	61*[fluorescence artefact?]
CD11b adhes enh	29	-5	-4	16
HIV Rev-RRE inh	-3	7	-13	6
PLK1 kinase inh	-4	-7	2	-18
ERa SRC1 pot	224*	129	.	103[fluorescence artefact?]
Mac1 fbg inh	0	-13	-5	-12
PLK1 PBD inh	17	24	15	-2

7 compounds from above, sorted by the value under Mac1 fbg inh, ascending.
#	compound	ERb coact inh	ERa coact inh	CD11b adhes enh	HIV Rev-RRE inh	PLK1 kinase inh	ERa SRC1 pot	Mac1 fbg inh	PLK1 PBD inh
9	Nc1nnc(SCC(=O)c2ccc3ccccc3c2)s1	1[fluorescence artefact?]	-10	1	8	-15	109	-23	-16
3	Cc1cc(-c2[nH]nc3c2C(c2cccc(O)c2)C(C#N)=C(N)O3)c(C)s1 (stereo not drawn)	5	11	-1	5	-9	61	-6	4
28	COc1cc2c(cc1NC(=S)Nc1ccccc1C)oc1ccccc12	-6	2	18	-1	-7	104	-5	-1
31	COc1cccc(-c2csc3nnc(SCC(=O)c4ccc(NC(C)=O)cc4)n23)c1	7	32[fluorescence artefact?]	29	-3	-4	224*	0	17
16	Cc1nc2ccc(NC(=O)NCCCO)cc2s1	3	6	-3	6	-4	91[fluorescence artefact?]	4	15
24	Fc1cccc(Cl)c1CSc1ncn[nH]1	.	.	5	4	-2	.	7	-18
29	O=C(NCc1ccco1)C1(S(=O)(=O)c2ccc(Cl)cc2)CC1	59*	2[fluorescence artefact?]	-2	6	-5	100	19	-2
